# 2A StopGo = High Throughput Screening for Foot and Mouth Disease Virus Antivirals. hit rate 1.2% among 410,000. Potency, µM (top dose mostly 57.9 µM), without a hit: at the highest dose signal change, negative = less light. human cells with a luciferase reporter of 2A StopGo recoding; control for the full effect not named in the record; active = well fitted falling curve with a large enough effect; inconclusive = small, poorly fitted or top-dose-only effect; inactive = no such curve, though single readings can be large or run the other way; tested in HEK293T cells; also: % is scaled to controls: 0 for no effect and ±100 for the full control effect; nearly all actives have a fitted effect of over 45% in size; luciferase light after 4 h
# RE007 growth inh = qHTS Assay for Inhibitors of the HIV-1 protein Vpr | S. pombe RE007 Vpr strain, BacTiter-Glo ATP luminescence, 24 h; control for the full effect not named in the record | Potency, µM (doses to about 92.2 µM), for inactives: top-dose activity change, negative = less growth | hit rate 0.21% among 360,000; active = well fitted falling curve with a large enough effect; inconclusive = small, poorly fitted or top-dose-only effect; inactive = no such curve, though single readings can be large or run the other way;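 also: % is scaled to controls: 0 for no effect and ±100 for the full control effect; nearly all actives have a fitted effect of over 50% in size; the assay follows cell death caused by Vpr and the record does not say whether a fall means rescue or toxicity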
#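 Fission yeast strain RE007, carrying one chromosomally integrated HIV-1 vpr copy, was seeded at OD 0.01 in PMG+AL medium with 23 nL pinned compound. After 24 h at 30 °C and 99% humidity, viability was read by BacTiter-Glo luminescence.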
# SARS PLP yeast = qHTS of Yeast-based Assay for SARS-CoV PLP. S. cerevisiae expressing SARS-CoV PLpro, growth rescue; control for the full effect not named in the record. Potency, µM (titrated, usually from 32.9 µM), without a hit: top-dose activity, positive = growth rescue. hit rate 0.19% among 330,000; active means well fitted rising curve with a large enough effect; inconclusive means small, poorly fitted or top-dose-only effect; inactive means no such curve, though single readings can be large or run the other way; also: 0% is about no effect; nearly all actives have a fitted effect of over 55% in size; growth read by luminescence after 48 h
# Cruzain inh noDet = qHTS Assay for Promiscuous and Specific Inhibitors of Cruzain (without detergent); Potency, µM, without a hit: max response, negative = inhibition, actives largely listed as inhibitors; purified cruzain, Z-FR-AMC fluorescence, no detergent; AID 1476, 2009; Cruzipain (Trypanosoma cruzi), P25779; hit rate 2.3% among 200,000;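 also: plate controls were enzyme without inhibitor for no effect and buffer without enzyme for full effect; nearly all actives have a fitted effect of over 40% in size; top concentration of the series not given in the record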
# Target sequence (P25779 123-467 limits assumed): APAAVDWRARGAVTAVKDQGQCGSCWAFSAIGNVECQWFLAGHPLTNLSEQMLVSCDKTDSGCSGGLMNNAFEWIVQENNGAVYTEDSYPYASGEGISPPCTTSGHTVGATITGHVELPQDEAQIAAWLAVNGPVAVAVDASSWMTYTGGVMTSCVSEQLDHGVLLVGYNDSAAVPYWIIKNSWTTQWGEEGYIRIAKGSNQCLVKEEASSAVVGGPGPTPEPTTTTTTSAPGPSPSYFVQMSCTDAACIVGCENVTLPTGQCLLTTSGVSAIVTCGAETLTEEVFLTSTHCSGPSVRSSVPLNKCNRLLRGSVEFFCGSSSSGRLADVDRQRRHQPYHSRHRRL
#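 Detergent-free condition (0.00005% Triton X-100) in acetate buffer pH 5.5 with DTT. 1.5 nM enzyme and compound were pre-mixed 15 min, then 2 uM Z-FR-AMC substrate added; reaction progress from fluorescence change between first and third reads (60 s).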
# MARV entry inh = qHTS for inhibitors of binding or entry into cells for Marburg Virus; Marburg virus pseudotyped entry inhibition, cell reporter; control for the full effect not named in the record; about a third of the inactives were read at about 46 µM; hit rate 1.8% among 300,000; Potency, µM (series often up to 37.8 µM), without a hit: at the top dose activity change, negative = inhibition, actives largely listed as inhibitors; active = well fitted inhibition curve with a large enough effect; inconclusive = small, poorly fitted or top-dose-only effect, or effect the other way; inactive = flat fitted curve, though single readings scatter; tested in HEK293 cells; about a fifth of its hits are not listed in these tables; also: % is scaled to controls: 0 for no effect and ±100 for the full control effect; luciferase read-out
# NS1 inh = qHTS Assay for Inhibitors of Influenza NS1 Protein Function; hit rate 0.4% among 270,000; Potency, µM (top dose mostly 46.1 µM), for inactives: at the top dose activity, positive = more growth; S. cerevisiae slowed by influenza A NS1, growth recovery by OD600; active means well fitted rising curve with a large enough effect; inconclusive means small, poorly fitted or top-dose-only effect; inactive means no such curve, though single readings can be large or run the other way; also: nearly all actives have a fitted effect of over 50% in size
#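 Recovery from NS1-induced slow growth read by OD600 in budding yeast switched to galactose assay medium (pH 6.0, -URA) at 1:100 dilution. Compound 23 nl per well; the matching strain lacking NS1 serves as control.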
# Lassa entry inh = qHTS for Inhibitors of binding or entry into cells for Lassa Virus; Lassa virus pseudotype entry inhibition, cell reporter; control for the full effect not named in the record; Potency, µM (top dose mostly 37.9 µM), inactives show at the highest dose activity change, negative = inhibition, most hits filed as inhibitors; hit rate 1.2% among 300,000; active means well fitted inhibition curve with a large enough effect; inconclusive means small, poorly fitted or top-dose-only effect, or effect the other way; inactive means flat fitted curve, though single readings scatter; tested in HEK293 cells; also: % is scaled to controls: 0 for no effect and ±100 for the full control effect; nearly all actives have a fitted effect of over 50% in size; luciferase read-out
# Cruzain inh Det = qHTS Assay for Promiscuous and Specific Inhibitors of Cruzain (with detergent); purified cruzain, Z-FR-AMC fluorescence, 0.01% Triton; Potency, µM, inactives show max response, negative = inhibition, actives largely listed as inhibitors; hit rate 0.43% among 200,000;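 also: plate controls were neutral wells for no effect and buffer without enzyme for full effect; nearly all actives have a fitted effect of over 40% in size; top concentration of the series not given in the record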
#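 Sodium acetate buffer (100 mM, pH 5.5) containing 5 mM DTT and 0.01% Triton X-100 hosted 1.5 nM cruzain and test compound for 15 min at room temperature. Cleavage of 2 uM Z-FR-AMC was then tracked by fluorescence.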
# Active calls of the source: *; ? = inconclusive; / = no result given; & = joins results of further samples; [ ] = remark or other dose. Unless noted, calls follow the shape of the dose curve; as a rule, active = well fitted curve in the direction sought with a large enough effect; inconclusive = small, poorly fitted or top-dose-only effect, or another doubt; inactive = no such curve, though single readings can be large; an effect the other way counts as inactive or inconclusive. Potency is read from the fitted curve at half-maximal effect.
SMILES,2A StopGo,RE007 growth inh,SARS PLP yeast,Cruzain inh noDet,MARV entry inh,NS1 inh,Lassa entry inh,Cruzain inh Det
CC(C)C(c1nnnn1C1CCCC1)N1CCOCC1 (stereo not given),5%,13%,8%,0%,-13%,-6%,4%,-3.3%
COc1ccc2oc(=N)c(-c3nnc4n3CCCCC4)cc2c1,27%,-14%[3.69 µM],-11%,-5%,-1%,2%,4%,2.5%
C[C@H](NC(=O)[C@@H]1Cc2ccccc2CN1)C(=O)Nc1ccc2c(c1)OCCO2,-2%,10%,3%,/,/,-2%,/,/
COc1cc(OC)c2c(N)c(C#N)c(C(F)(F)C(F)(F)F)nc2c1,-20%,-7%,9%,-18%,-3%,-2%,2%,-8.1%
CCOc1ccc(C(=O)OCn2nnc3ccccc3c2=O)cc1OC,16%,17%,-1%,6%,0%,-3%,5%,2.7%
Cc1ccc(C)c(NC(=O)c2cc(S(=O)(=O)N3CCCCCC3)ccc2F)c1,-1%,/,/,7%,/,/,-4%[46.1 µM],1.1%
c1ccc(CCNc2nc3ccccc3s2)cc1,21%,-26%,-25%,2%,?,-75%,-19%,-8.7%
CCc1ccc(OCCCOc2ccc(C=O)cc2)cc1,-7%,3%,4%,4%,0%,-80%,22%,-7.8%
Cc1ccccc1OCCNc1cc(N2CC(C)NC(C)C2)ccc1[N+](=O)[O-] (stereo not given),-8%,-4%,-5%,/,/,-1%,/,/
CC1CN(Cc2ccccn2)CCC1=O (stereo not given),-14%,5%,5%,6%,17%,3%,?,1.6%
Cc1cccc(CC(=O)Nc2ccc3nc(N4CCC(C)CC4)cc(C)c3c2)c1,0%,/,/,?,-17%[46.1 µM],/,7%[46.1 µM],-17%
O=C(Nc1cccc(C(F)(F)F)c1)c1ccc(-n2cncn2)nc1,-30%,11%,-6%,/,-10%[46.1 µM],/,-1%[46.1 µM],/
CCCCn1c(-c2ccoc2C)n[nH]c1=S,-11%,0%,-2%,0%,-7%,9%,-28%,-0.4%
COc1cc2c(cc1OC)CN(C(=O)CCNC(=O)c1ccc(Br)cc1)CC2,-16%,7%,-15%,/,7%,/,0%,/
O=C(N[C@@H](Cc1ccccc1)C(=O)Nc1ccc(F)cc1)C1CCNCC1,-15%,6%,-1%,/,9%[46.1 µM],0%,-5%[46.1 µM],/
CCc1cccc(NC(=S)N(CCOC)C2CCN(C(C)=O)CC2)c1,-11%,0%,2%,/,3%[46.1 µM],-1%,-9%,/
CC12C=CC(=O)C=C1C(F)CC1C3CCC(O)(C(=O)CO)C3(C)CC(O)C12F (stereo not given),0%,-7%,/,/,-11%,/,-24%,/
COc1ccc(OCc2nnc(SCC(N)=O)n2-c2ccccc2OC)cc1,19%,-8%,-1%,8%,-1%,-17%,10%[14.3 µM],-1.7%
CC1=C(C#N)C(c2cccnc2)C2=C(CC(c3ccc(Cl)cc3)CC2=O)N1 (stereo not given),/,-3%,12%,1%,0%,-9%,-7%,-1.2%
CCOC(=O)N1CCN(C(=O)c2sc3nc(-c4ccc(F)cc4)cn3c2C)CC1,-7%,4%,13%,?,-24%,-8%,1%,0.2%
CCOCCCNCc1ccc(OCc2ccc(F)cc2)c(OC)c1,-9%,-20%,1%,/,-14%[46.1 µM],1%,16%,/
C=CCc1cc(C(=O)N2CCCCC2)ccc1O,-20%,4%,2%,5%,-15%,-5%,16%,4.2%
Cc1cccc(NS(=O)(=O)c2ccc(C(=O)N3CCCCCC3)cc2)c1C,-7%,-5%,-3%,/,-29%[46.1 µM],/,-19%,/
COc1ccc(C(=O)ON=C2CCN(C)CC2)cc1,2%,0%,0%,/,16%[46.1 µM],-4%,8%,/

# Pulled one by one from the entries so far, 2 records:
SMILES,2A StopGo,RE007 growth inh,SARS PLP yeast,Cruzain inh noDet,MARV entry inh,NS1 inh,Lassa entry inh,Cruzain inh Det
C[C@H](NC(=O)[C@@H]1Cc2ccccc2CN1)C(=O)Nc1ccc2c(c1)OCCO2,-2%,10%,3%,/,/,-2%,/,/
CC1=C(C#N)C(c2cccnc2)C2=C(CC(c3ccc(Cl)cc3)CC2=O)N1 (stereo not given),/,-3%,12%,1%,0%,-9%,-7%,-1.2%

# (continued)
SMILES,2A StopGo,RE007 growth inh,SARS PLP yeast,Cruzain inh noDet,MARV entry inh,NS1 inh,Lassa entry inh,Cruzain inh Det
O=C(Nc1c(-c2ccccc2)nc2ccc(Cl)cn12)c1cccs1,-21%,10%,4%,12%,1%,10%,?,-0.6%
COc1cccc(C2CC(c3ccccc3Cl)n3nc(N)nc3N2)c1 (stereo not given),?,12%,1%,4%,?,13%,6%,-1.1%
CC(C)(C)OC(=O)NCCc1nnc(SCC(=O)Nc2ccc(Br)cc2)o1,-5%,2%,-1%,/,?,4%,28%,/
Cc1ccc(S(=O)(=O)NC(=O)NCCc2ccccc2)cc1,8%,25%,-3%,/,18%[46.1 µM],/,21%[46.1 µM],/
Cc1cc(N/N=C/c2ccc([N+](=O)[O-])o2)nc2ccccc12,-24%,-22%,-26%,/,?,-1%,1%,/
COC(=O)c1c(-c2c(Cl)cccc2Cl)noc1C(=O)NNC(=O)N(C)C,18%,7%,0%,/,19%[46.1 µM],4%,-2%,/
COCCCNC(=O)C1CCCN(S(=O)(=O)c2ccc3c(c2)oc(=O)n3C)C1 (stereo not given),-3%,/,/,-4%,2%[46.1 µM],/,18%[46.1 µM],1.7%
COc1cc(-c2nnc(SCC(=O)c3ccc(C)cc3)o2)cc(OC)c1OC,0%,-4%,-3%,?,-10%,-4%,?,-3.3%
COc1ccc(-c2nc(C#N)c(NCC3CCCO3)o2)cc1OC (stereo not given),35%[activator],-16%,2%,-3%,-1%,-15%,1%,-13%
Cc1ccnc(-n2c(-c3ccccc3)nc3ccccc3c2=O)c1,-8%,-11%,1%,-2%,-1%,8%,10%,-1.1%
CCCCCN1C(=O)/C(=C/c2c(N3CCc4ccccc4C3)nc3ccccn3c2=O)SC1=S,25%,1%,/,/,20%[46.1 µM],/,16%,/
COc1ccc2c(c1)cc(C(=O)N[C@@H](Cc1ccccc1)C(=O)O)n2C,-15%,-4%,1%,/,/,-1%,/,/
COc1ccc(OC)c(C(=O)c2coc3ccc(OCC(=O)O)cc23)c1,-16%,-7%,18%,-4%,-16%,0%,11%,5.5%
Cc1[nH]n(-c2ccccc2)c(=O)c1C=Nc1ccc(S(N)(=O)=O)cc1,-1%,-3%,-5%,/,7%,-7%,1%,/
CC(C)N(Cc1ccccc1)C(=S)NCCN1CCOCC1,-12%,3%,1%,/,12%[46.1 µM],7%,-4%,/
CCn1cc(C(=O)O)c(=O)c2cc(F)c(N3CCN(C(=S)Nc4ccccc4OC)CC3)cc21,-8%,10%,0%,/,/,1%,/,/
O=[N+]([O-])c1cc(Cl)cc(/C=N\Nc2ccccn2)c1O,-29%,-27%,-12%,1%,?,-47%,?,15%
Cc1cc(C(=O)Nc2ccc(Cl)cc2)c2ccccc2n1,-10%,5%,-2%,/,-1%[46.1 µM],-16%,-15%[46.1 µM],/
CCn1cc([C@@H]2C[C@H]3CN(Cc4cccc(Cl)c4)C(=O)[C@]34CCCN24)cn1,-11%,-2%,0%,/,7%[46.1 µM],0%,0%,/
CCC(NC(=O)Nc1nccs1)(C(F)(F)F)C(F)(F)F,-10%,19%,-5%,-2%,10%,4%,-15%,-0.7%
CCOc1ccc(NC(=O)CN(c2ccc(OC)c(OC)c2)S(=O)(=O)c2ccc(C)cc2)cc1,-1%,-4%,14%,/,/,15%,/,/
COc1ccc(OC)c(C(=O)NC(CC(N)=O)c2ccc(N3CCN(c4ccc(F)cc4)CC3)c([N+](=O)[O-])c2)c1 (stereo not given),-6%,4%,-1%,/,/,6%,/,/
CC1(NC(=O)NCc2ccco2)CCS(=O)(=O)C1 (stereo not given),3%,-15%,4%,7%,-23%,11%,9%,-0.4%
Clc1ccc(-c2csc(-c3nc(-c4ccc(Br)s4)cs3)n2)cc1,-8%,/,/,-1%,6%[46.1 µM],/,-17%[46.1 µM],-0.9%
COc1ccc2[nH]c3c(c2c1)CCN1C(=O)C(CC(=O)NCCCn2ccnc2)C[C@H](C(=O)N2CCOCC2)[C@@]31CCC1CCCC1 (stereo not given in full),22%,8%,25%,/,-6%,/,/,/
CN1CCN(C(=O)/C(=C/c2ccccc2F)NC(=O)c2ccccc2)CC1,1%,10%,-1%,/,1%,-7%,23%,/
NC(=O)COC(=O)c1ccc(C(=O)C(=O)c2ccccc2)cc1,-11%,3%,1%,/,?,/,1%,/
COc1ccc(C(=O)c2nc3ccccc3n2C(C)C)cc1,0%,0%,0%,/,/,-3%,/,/
O=C(CCNC(=O)c1ccccc1Cl)Nc1ccc(Cl)c(C(F)(F)F)c1,8%,2%,3.5µM*,1%,?,-17%,-1%,-9.2%
COc1ccc(C)cc1NS(=O)(=O)c1cc2c3c(c1)CC(=O)N3CCC2,-1%,/,/,10%,/,/,0%[46.1 µM],-1.8%
Clc1ccc(-c2nnc(-c3ccccc3)nc2-c2c[nH]c3ccccc23)cc1,9%,-11%,0%,/,-16%[46.1 µM],/,-8%,/
CC(=O)N1C(C)(C)CC(=NOC(=O)c2ccccc2)CC1(C)C,11%,-18%,1%,/,13%,4%,-6%,/
CCc1ccc(NC(=O)CSc2ccc(-c3ccccn3)nn2)cc1,-5%&-5%,-27%,6%,-6%,/,-90%,-21%[46.1 µM],-1.9%
CC(=O)c1ccc(OCC(O)CN2CCN(CCO)CC2)cc1 (stereo not given),-16%,-3%,5%,8%,/,4%,/,-0.4%
CCOc1ccc(NN=C(C(=O)OC)C(=O)OC)c([N+](=O)[O-])c1,0%,2%,0%,/,-6%[46.1 µM],-1%,11%,/
CCCOc1ccc(NC(=O)OC2CCN(C)CC2)cc1,13%,-4%,13%,-14%,?,20%,5%,2.8%
COc1ccc(NC(=O)c2sc3nc(-c4cc5cccc(OC)c5oc4=O)[nH]c(=O)c3c2C)cc1,?,/,/,1%,/,/,27%[46.1 µM],-2.5%

# Bioassay records (PubChem)
